# Screens as filed in PubChem.
# miR-21 FLuc = qHTS Assay for Modulators of miRNAs and/orActivators of miR-21 | HeLa miR-21 FLuc reporter, luciferase, 48 h | Potency, µM (series often up to 38.3 µM), for the others: top-dose reporter change, positive = more light | 340,000 tested, under 10 active | AID 2288, 2010; active = well fitted rising curve with a large enough effect; inconclusive = small, poorly fitted or top-dose-only effect; inactive = no such curve, though single readings can be large or run the other way;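 also: % of control where 0% means no effect; miR-21 action dims this reporter so a rising signal means less miR-21 action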
#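 HeLa cells stably expressing CMV-driven firefly luciferase with a downstream miR-21 binding sequence, endogenously expressing miR-21, were treated with titrations (up to about 40uM final) for 48 hours at 37 degree Celsius. Luciferase luminescence was read after lysis.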
# * hit, by the source's call; ? = inconclusive.
SMILES,miR-21 FLuc
Cc1ccccc1CNCCSc1nnnn1C,-5%
Cc1ccc(-c2csc(-c3c(N)c(C(=O)c4ccc5c(c4)OCO5)n4ccccc34)n2)cc1,-7%
COc1ccc(NC(=O)CCc2c(C)nc3c(-c4ccccc4)c(C)nn3c2C)cc1Cl,-8%
CCOc1ccccc1CNC(=O)c1ccc(Cn2c(SCc3ccccc3)nc3cccnc32)cc1,-21%
CCOc1cccc(C(=O)Nc2ccc(S(=O)(=O)N(Cc3ccccc3)c3ccccc3)cc2)c1,16%
CCCN(CCC)CCCNC(=O)Cn1cc2c(n1)-c1c(oc(C(=O)N3CCCC3)c1C)CC2,0%
CN(C)c1ccc(/C=C/c2nc(-c3ccccc3O)n(-c3ccccc3)n2)cc1,-8%
Cn1c(SCC(=O)Nc2nc3ccccc3s2)ncc(C(=O)Nc2ccccc2)c1=O,2%
COc1ccc(NC(=O)Cn2cc(C(=O)C3CCCCC3)c3ccccc32)cc1,15%
COc1ccc(NC(=O)C2CCCN(c3ncnc4c3nc3n4CCCCC3)C2)c(OC)c1 (stereo unspecified),-7%
CCOC(=O)C1CCN(c2nc3c(S(=O)(=O)c4ccc(C)c(C)c4)nnn3c3ccc(Cl)cc23)CC1,-5%
O=C(CSc1nnc2[nH]c(=O)cc(-c3ccccc3)n12)Nc1ccc(OC(F)(F)F)cc1,-4%
O=C1C(=O)N(C2CCN(C(=O)c3ccccc3F)CC2)CCN1Cc1ccc(F)cc1,-1%
Cc1ccc(-c2c(CN3CCN(c4cc(C)ccc4C)CC3)csc2C)cc1,?
CCOc1ccc(NC(=O)c2ccc3[nH]c(C)cc(=O)c3c2)cc1,2%
CCc1ccc(-c2cn3nc(CC)sc3n2)cc1,?
Cn1c2ccccc2c2c(C(=O)N3CCN(c4cccc(C(F)(F)F)c4)CC3)cn(C3CCCCC3)c(=O)c21,20%
CCOCCCNC(=O)C1CCCN(c2ncnc3onc(C)c23)C1 (stereo unspecified),4%
CCOc1cc(C2c3c(-c4cc(C)ccc4O)n[nH]c3C(=O)N2CCCOC(C)C)ccc1O (stereo unspecified),1%
CCOc1ccc(-n2c(=O)c3c(C)c(C)sc3n(CC(=O)N(CC)Cc3ccccc3)c2=O)cc1,-2%
COC(=O)c1c(NC(=O)CS(=O)(=O)c2ccc(C)cc2)sc2c1CCCC2,-7%
CCOc1ccccc1NC(=O)c1ccc2c(Cl)c3c(nc2c1)CCC3,-42%
O=C(Nc1cccc(Br)c1)N1CCC(CN2CCCCCC2)CC1,4%
Cc1ccc(NC(=O)CSc2nc3ccc(NC(=O)CCc4ccccc4)cc3s2)cc1,-2%
COc1ccc(NC(=O)c2ccc3[nH]c(C)cc(=O)c3c2)cc1,-15%
Cc1nnc(NC(=O)CSc2nc3c([nH]c4ccccc43)c(=O)n2-c2cccc(Cl)c2)s1,-7%
Clc1ccc(Nc2nc(-c3ccccc3)c3cc(Cl)ccc3n2)cc1,-3%
CCOC(=O)c1c(C)oc2ncnc(Nc3cc(Cl)ccc3OC)c12,-2%
COc1ccc2c(C)c(CCC(=O)NCCc3ccc(Cl)cc3)c(=O)oc2c1,11%
O=C(Nc1cc2ccc(O)cc2oc1=O)c1ccc(F)cc1,-43%
Cc1ccccc1-c1nc(CS(=O)(=O)CC(=O)Nc2cc(Cl)cc(Cl)c2)c(C)o1,12%
CCN(CCCNC(=O)c1cc(Nc2ccc(OC)cc2OC)nc2ccccc12)c1cccc(C)c1,20%
CCN(CC)S(=O)(=O)c1ccc2c(c1)N(CC(=O)NCc1ccccc1)C(=O)CS2,-1%
Cc1c(C(=O)NCCc2ccc(Cl)cc2)cccc1-n1cnc2cccnc21,17%
Cc1ccc(C)c2sc(N3CCN(C(=O)c4ccco4)CC3)nc12,-6%
CCS(=O)(=O)N1CCc2cc(C(=O)Nc3cc(C)cc(C)c3)ccc21,-1%
CCN1C(=O)c2ccccc2Sc2ccc(NC(=O)Cc3ccc(OC)c(OC)c3)cc21,21%
CCCCN(CC)C(=O)CSc1nc2n[nH]c(C)c2c(=N)n1-c1cccc(OC)c1,19%
CC1CCC(N2CC(=O)N(C3CCCCC3)C(c3ccc(Cl)cc3)C2=O)CC1 (stereo unspecified),-6%
O=C(CN1C(=O)COc2ccc(S(=O)(=O)N3CCOCC3)cc21)N1CCN(c2cccc(C(F)(F)F)c2)CC1,7%
COc1ccccc1NC(=O)CCN1CCC(C(N)=O)CC1,-2%
Cc1ccc(NC(=O)Cn2cc(S(=O)(=O)c3ccccc3)c(=O)c3cc4c(cc32)OCO4)cc1,-2%
CCN(C(=O)c1sc2nc3n(c(=O)c2c1C)CCCCC3)c1ccccc1F,-5%
CC(C)CC(=O)Nc1c(C(=O)N2CCN(c3ccccc3)CC2)oc2ccccc12,0%
O=C(COc1ccc(F)cc1)NCC(c1ccc(Cl)cc1)N1CCCCC1 (stereo unspecified),?
CCOc1ccc(CNC(=O)c2c(C)nn(-c3ccc(F)cc3)c2-n2cccc2)cc1,27%
CSc1ncc(C(=O)NCc2ccccc2Cl)c(C(F)(F)F)n1,-6%
Cc1ccc2c(CC(=O)NCc3ccccc3)coc2c1C,16%
CCCCNC(=O)CSc1c2c(nc3ccc(Cl)cc13)CCCC2,20%
COc1ccc(-c2nc(CSCC(=O)NCCC(C)C)c(C)o2)cc1OC,-2%

# Additional structures
SMILES,miR-21 FLuc
Cc1oc2ccc(O)c(CN3CCN(C)CC3)c2c1C(=O)Nc1cccc(C(F)(F)F)c1,18%
CCOC(=O)c1c(C)oc2ccc(N(C(=O)c3ccncc3)S(=O)(=O)c3ccc(CC)cc3)cc12,27%
Cc1ccc(NC(=O)Cn2cnc3c(oc4ccccc43)c2=O)cc1Cl,-1%
O=C(Nc1cccc(Cl)c1Cl)c1cc(S(=O)(=O)N2CCCc3ccccc32)ccc1F,2%
CCc1nn2c(-c3ccco3)ccnc2c1-c1ccccc1,-24%
Cc1cccc(CN2C(=O)c3ccccc3S(=O)(=O)c3ccc(C(=O)NCCC4=CCCCC4)cc32)c1,0%
COc1cccc2c1cc1c(=O)n(CC(=O)NCc3ccc(N(C)C)cc3)nc(C)n12,-6%
Cc1cccc(-c2nc3ccccc3n2Cc2ccccc2)c1,-6%
NC(=O)CSc1oc(-c2cccs2)nc1S(=O)(=O)c1ccc(Br)cc1,-2%
Cc1ccn2c(Nc3ccccc3C)c(-c3ccc(N4CCOCC4)cc3)nc2c1,1%
Cc1ccc(CNC(=O)C(C)n2nc(C)c3sc4ccccc4c3c2=O)cc1 (stereo unspecified),-4%
CCCCOc1ccc(C(=O)Nc2cccc(-c3nc4ccccc4o3)c2C)cc1,1%
Cc1ccc(NC(=O)CCC(=O)N2CCSc3ccccc32)cc1Cl,5%
COc1ccc(NC(=O)c2cn(-c3ccccc3)nc2-c2ccc(C)cc2)cc1,-10%
COc1ccc2c(C)c(CC(=O)NCc3ccc(C)cc3)c(=O)oc2c1OC,-6%
Cc1ccc(S(=O)(=O)N(CC(=O)Nc2cccnc2)c2cc(Cl)ccc2C)cc1,-4%
CCCNC(=O)C1CCC(Cn2c(=O)c3sccc3n(CC(=O)N3CCC(C)CC3)c2=O)CC1 (stereo unspecified),-1%
COc1ccc(CCNC(=O)c2ccc(Cn3c(=O)c4ccccc4n(Cc4ccc(C)cc4)c3=O)cc2)cc1OC,-1%
COc1cccc(C(=O)c2cn(CC(=O)Nc3cccc(Cl)c3C)c3nc(C)ccc3c2=O)c1,0%
O=C(c1ccccc1)n1nc(-c2ccco2)nc1NCc1ccccc1Cl,-25%
CCOC(=O)c1c(NC(=O)Cc2coc3cc(C)ccc23)sc2c1CCCC2,1%
COc1cccc2c1Oc1ncccc1N(C(=O)CCC(=O)NCc1ccc(N(C)C)cc1)C2,0%
CCOc1ccc(C(=O)NC2CC(=O)N(c3ccc(C)cc3)C2)cc1OCC (stereo unspecified),1%
CCCNC(=O)CCC(=O)N1Cc2ccccc2Oc2ncccc21,-6%
COc1ccc(C(=O)NCCn2cc(SCc3c(F)cccc3Cl)c3ccccc32)cc1,?
COC(=O)c1cc(NC(=O)Cn2ncc3c2-c2ccccc2OC3)cc(C(=O)OC)c1,7%
Cc1ccccc1OC(=O)c1snnc1C,1%
Cc1ccc(S(=O)(=O)NCC2CCC(C(=O)N(C)Cc3ccccc3)CC2)cc1 (stereo unspecified),9%
COc1cc2ccccc2cc1C(=O)Nc1cccc(-c2nc3cc(C)ccc3o2)c1C,0%
CCC(=O)N1CCc2cc(S(=O)(=O)NC(C(=O)NCCc3ccccc3)C(C)C)ccc21 (stereo unspecified),-4%

# For reference, some entries already given.
SMILES,miR-21 FLuc
CCCNC(=O)C1CCC(Cn2c(=O)c3sccc3n(CC(=O)N3CCC(C)CC3)c2=O)CC1 (stereo unspecified),-1%
COc1ccc(CCNC(=O)c2ccc(Cn3c(=O)c4ccccc4n(Cc4ccc(C)cc4)c3=O)cc2)cc1OC,-1%
COc1cccc(C(=O)c2cn(CC(=O)Nc3cccc(Cl)c3C)c3nc(C)ccc3c2=O)c1,0%
O=C(c1ccccc1)n1nc(-c2ccco2)nc1NCc1ccccc1Cl,-25%
CCOC(=O)c1c(NC(=O)Cc2coc3cc(C)ccc23)sc2c1CCCC2,1%
COc1cccc2c1Oc1ncccc1N(C(=O)CCC(=O)NCc1ccc(N(C)C)cc1)C2,0%
CCOc1ccc(C(=O)NC2CC(=O)N(c3ccc(C)cc3)C2)cc1OCC (stereo unspecified),1%
CCCNC(=O)CCC(=O)N1Cc2ccccc2Oc2ncccc21,-6%
COc1ccc(C(=O)NCCn2cc(SCc3c(F)cccc3Cl)c3ccccc32)cc1,?
COC(=O)c1cc(NC(=O)Cn2ncc3c2-c2ccccc2OC3)cc(C(=O)OC)c1,7%
Cc1ccccc1OC(=O)c1snnc1C,1%
Cc1ccc(S(=O)(=O)NCC2CCC(C(=O)N(C)Cc3ccccc3)CC2)cc1 (stereo unspecified),9%
COc1cc2ccccc2cc1C(=O)Nc1cccc(-c2nc3cc(C)ccc3o2)c1C,0%
CCC(=O)N1CCc2cc(S(=O)(=O)NC(C(=O)NCCc3ccccc3)C(C)C)ccc21 (stereo unspecified),-4%

# (list continues)
SMILES,miR-21 FLuc
CCN(C(=O)CSc1nc2ccccc2[nH]1)c1ccccc1,-7%
COc1cc(OC)c(NC(=O)c2ccc3c(c2)N(Cc2ccc(C)cc2)CCS3)cc1Cl,-8%
CCOc1cccc(C2Oc3nc(SC)nnc3-c3ccccc3N2C(C)=O)c1OC (stereo unspecified),-10%
Cc1ccc(-c2nc(S(=O)(=O)c3ccc(C)cc3)c(N3CCCCC3)o2)cc1,-5%
CN(C(=O)CSc1cn(CC(=O)N2CCCCCC2)c2ccccc12)c1ccccc1,2%
Cc1cccc(N2CCN(C(=O)CCCn3ncn4c(cc5occc54)c3=O)CC2)c1C,22%
O=C(NCc1cccs1)C1CCN(C(=O)N2CCOc3ccccc32)CC1,-12%
O=C(c1ccc(C(F)(F)F)cc1)N1CCC(c2noc(-c3ccc(S(=O)(=O)N4CCCC4)cc3)n2)CC1,19%
Cc1c(Cl)cccc1NC(=O)Cn1c(=O)n(Cc2ccco2)c(=O)c2oc3ccccc3c21,5%
CC(C)c1ccc(C2CC(=O)N3CN(C4CCCCC4)CSC3=C2C#N)cc1 (stereo unspecified),4%
O=C(COc1ccccc1)NC1CC(=O)N(c2ccc3c(c2)OCCO3)C1 (stereo unspecified),3%
CCOC(=O)c1c(C)c(-c2ccccc2)n(CC(=O)NCCc2cccc(C)c2)c1C,-10%
Cn1c(=O)cc(SCC(=O)N2CCN(c3ccccc3F)CC2)c2ccc(Cl)cc21,0%
COc1ccc(NC(=O)C(NC(=O)/C=C\c2ccc3c(c2)OCO3)c2ccc(C)cc2)cc1 (stereo unspecified),-4%
COc1ccccc1-c1nn(CCC(=O)Nc2cccc(C(C)=O)c2)c2nc(C)cc(C)c12,17%
COCCNC(=O)c1ccc(-c2nc(CS(=O)(=O)c3ccccc3)c(C)o2)cc1,-1%
COc1ccc(C(=O)Nc2nc(-c3nnn(-c4cc(OC)ccc4OC)c3C)ns2)cc1,10%
COc1ccc(N2CCN(C(=O)Cc3noc4ccc(C)cc34)CC2)cc1,11%
COc1ccc(C2(Nc3cccc(F)c3)C(=O)c3ccccc3C2=O)cc1,1%
COc1ccc(OC)c(NC(=O)Cn2c(=O)cc(C)c3c(C)nn(-c4cccc(Cl)c4C)c32)c1,-1%
COc1cccc(N2CC(NC(=O)C3CCCC3)CC2=O)c1 (stereo unspecified),-5%
COc1ccc(OC)c(NC(=O)c2c(NCc3cccs3)sc3c2CCCCC3)c1,-9%
COc1cccc(-c2cc(C(=O)NCCc3ccc(OC)c(OC)c3)no2)c1,-10%
CSCCC(NC(=O)C1CCCCC1)C(=O)Nc1ccc(F)c(Cl)c1 (stereo unspecified),7%
N#C/C(=C\c1ccc(-c2cccc(Cl)c2)o1)C(=O)Nc1cccc(C(F)(F)F)c1,-8%
Cc1ccccc1NS(=O)(=O)c1ccc2[nH]cc(C(=O)N3CCCCC3)c(=O)c2c1,3%
COC(=O)c1c(NC(=O)c2cc3ccccc3c(=O)o2)sc2c1CCCC2,1%
CCc1ccc(N2CCn3c2nc2c3c(=O)n(CCc3ccccc3)c(=O)n2C)cc1,8%
CC(C)(C)C(=O)Nc1ccc2nc(SCc3ccccc3)sc2c1,-12%
Cc1ccccc1Nc1nn2c(=O)c3ccc(C(=O)NCc4cccs4)cc3nc2s1,?
Cc1cccn2c(=O)cc(COc3ccc(NC(=O)C(C)C)cc3)nc12,-2%
COc1ccc(-c2cc(C(F)(F)F)n3nc(C(=O)Nc4cccc(Cl)c4Cl)cc3n2)cc1OC,-6%
CCc1nn2c(=O)cc(COC(=O)Cc3ccccc3)nc2s1,-4%
Cc1cc(NC(=O)c2ccc(NC(=O)CCS(=O)(=O)c3cccs3)cc2)ccc1Br,-31%

# This is a subset; the hit share may differ from the screen's.
